From PubChem
AID923: qHTS Assay for Allosteric/Competitive Inhibitors of Caspase-1: Spectroscopic Profiling in AFC Spectral Region. Potency, µM (series often up to 57.5 µM), without a hit: at the highest dose fluorescence increase, hits mostly activators. AID 923, 2007. actives 1.1% (n = 75,000). compound fluorescence, AFC spectral region (405/520 nm); almost no hit is shown here; active = well fitted activation curve with a large enough effect; inconclusive = small, poorly fitted or top-dose-only effect;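 also: potency is read from the fitted curve at half-maximal effect; 0% is about no effect; scaled to a free AFC standard on each plate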
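Titrations up to 57 uM read every 20 sec for 3 min (405/520 nm) with 50 nM caspase 1 and 5 uM Ac-WEHD-AFC, pH 7.5 HEPES buffer. Fluorescence-vs-time intercept gave baseline, scaled against on-plate AFC standard.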
A647 autofl: compound fluoresces in the A647 spectral region; 59,000 tested, under 10 active; max dye-equivalent concentration, M; Compound fluorescence, A647 channel (570/671 nm), Tris buffer; active means above 1 µM dye equivalent; inconclusive means 0.1 to 1 µM; inactive means 0.1 µM or less;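 also: values scaled relative to a standard on each plate; highest value over a series up to 38 µM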
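Compounds pinned into 100 mM Tris pH 8.0, 15 min at room temperature, then read with 570 nm excitation/671 nm emission filters. Fluorescence normalized to an on-plate six-point Alexa 647 standard curve, giving dye-equivalent concentration per compound concentration.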
TSHR agonist: activates the human thyroid stimulating hormone receptor | Potency, µM (series often up to 57.1 µM), for inactives: top-dose activation, actives largely listed as activators | actives 0.48% (n = 73,000) | HEK293-CNG-TSHR cells (CNG channel as cAMP sensor), membrane potential dye, cAMP | AID 926 | P16473; active = well fitted activation curve of enough size with the parental cells flat; inconclusive = any curve in the parental cells; inactive = parental cells flat and receptor cells flat or falling; also: potency is read from the fitted curve at half-maximal effect; % of control where 0% means no effect; weak receptor curves with flat parental cells got no call and are not listed
Target sequence (P16473 whole entry, looked up): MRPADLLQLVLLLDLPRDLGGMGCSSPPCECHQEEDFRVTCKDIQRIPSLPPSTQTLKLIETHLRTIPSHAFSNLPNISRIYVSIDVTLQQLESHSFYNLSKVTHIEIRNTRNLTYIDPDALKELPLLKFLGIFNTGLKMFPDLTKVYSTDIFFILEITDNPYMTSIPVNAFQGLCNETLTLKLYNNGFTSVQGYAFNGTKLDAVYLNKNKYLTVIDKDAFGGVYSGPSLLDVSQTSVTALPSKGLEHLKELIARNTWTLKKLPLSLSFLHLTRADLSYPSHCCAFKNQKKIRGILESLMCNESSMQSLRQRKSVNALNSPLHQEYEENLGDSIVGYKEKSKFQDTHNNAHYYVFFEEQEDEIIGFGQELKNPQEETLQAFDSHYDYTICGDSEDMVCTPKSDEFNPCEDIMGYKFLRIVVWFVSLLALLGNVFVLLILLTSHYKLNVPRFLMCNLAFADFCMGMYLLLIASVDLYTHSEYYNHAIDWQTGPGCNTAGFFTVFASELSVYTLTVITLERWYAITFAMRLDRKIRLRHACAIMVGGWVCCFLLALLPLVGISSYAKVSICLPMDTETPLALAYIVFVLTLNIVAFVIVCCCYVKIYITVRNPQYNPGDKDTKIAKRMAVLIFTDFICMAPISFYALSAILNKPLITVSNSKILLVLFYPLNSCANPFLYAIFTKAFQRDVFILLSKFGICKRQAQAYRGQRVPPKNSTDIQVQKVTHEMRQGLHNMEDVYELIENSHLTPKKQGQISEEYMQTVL
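cAMP rise detected as CNG-channel membrane depolarization by fluorescent dye (emission 590 nm), 30 min after compound, following 60 min dye loading containing 100 uM RO 20-1724 at room temperature. Cells: TSHR/CNG HEK 293, with parental CNG HEK 293 as control.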
Resorufin autofl: compounds fluorescent in resorufin spectral region. max dye-equivalent concentration, M. actives 0.04% (n = 59,000). Compound fluorescence, resorufin region 547/598 nm, buffer; active compounds read high; active = above 10 nM dye equivalent; inconclusive = 1 to 10 nM; inactive = 1 nM or less; a few of its hits are not listed in these tables; also: highest value over a series up to 38 µM
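Tris 100 mM pH 8.0; compound added, 15 min RT; CCD imager read, ex 547 nm/em 598 nm; signal normalized to resorufin standard curve (six concentrations per plate) as dye-equivalent concentration.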
A488 fluor: compound autofluorescence in A488 spectral region | actives 0.1% (n = 59,000) | AID 591 | compound autofluorescence, A488 spectral region, dye equivalency; active compounds read high | max dye equivalency, M; active = above 10 nM dye equivalent; inconclusive = 1 to 10 nM; inactive = 1 nM or less; about half of its hits are not listed in these tables;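 also: highest value over a series up to 38 µM; compound alone in buffer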
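Read-out: relative fluorescence at 480/540 nm, expressed as Alexa 488 dye-equivalent concentration from a six-point A488 standard included per plate. Conditions: 100 mM Tris, pH 8.0; 15 min incubation, room temperature.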
Starred values were filed as active, the others as inactive; i = inactive; ? = inconclusive; . = not tested or not shown; & = joins results of further samples; [ ] = another dose, or the depositor's remark. Some of the compounds tested; rates above refer to the full screens.

Sample of the layout (five entries):
compound	AID923	A647 autofl	TSHR agonist	Resorufin autofl	A488 fluor
CCCc1ccc(C(=O)N2CCN(c3ccccc3OCC)CC2)cc1	0.8%	3.9e-08	5%	i	i
CCCCOc1ccc(C(=O)Nc2ccc(N3CCN(C)CC3)cc2)cc1	-1.1%	2.4e-08	?	i	i
CN(C(=O)COc1ccccc1)c1nnc(-c2cccnc2)s1	-0.3%	2.2e-08	?	i	i
CCOC(=O)c1cc(NC(=O)SCC(=O)O)c(C)nc1C	1.0%	2.2e-08	3%	i	i
Cc1ccc(C(=O)Nc2ccccc2N2CCOCC2)c(C)c1	0.3%	.	1%	.	.

All compounds of this part (from the top)
compound	AID923	A647 autofl	TSHR agonist	Resorufin autofl	A488 fluor
CCCc1ccc(C(=O)N2CCN(c3ccccc3OCC)CC2)cc1	0.8%	3.9e-08	5%	i	i
CCCCOc1ccc(C(=O)Nc2ccc(N3CCN(C)CC3)cc2)cc1	-1.1%	2.4e-08	?	i	i
CN(C(=O)COc1ccccc1)c1nnc(-c2cccnc2)s1	-0.3%	2.2e-08	?	i	i
CCOC(=O)c1cc(NC(=O)SCC(=O)O)c(C)nc1C	1.0%	2.2e-08	3%	i	i
Cc1ccc(C(=O)Nc2ccccc2N2CCOCC2)c(C)c1	0.3%	.	1%	.	.
Cc1ccc(N(CC(=O)NC2CC3CCC2C3)S(C)(=O)=O)cc1C (centres undefined)	0.1%	.	7%	.	.
O=C(CN1CCCCC1)Nc1cccc(-n2cnnn2)c1	-0.1%	3.2e-08	0%	i	i
COCCOC(=O)C1=C(C)NC2=C(C(=O)CCC2)C1c1ccc(N(C)C)cc1 (centres undefined)	3.8%	.	-5%	.	.
OCC#Cc1cnc2ccccc2c1	1.0%	3.6e-09	-3%	i	i
Fc1ccccc1COc1cccc(/C=N/n2cnnc2)c1	0.7%	.	?	.	.
CSc1nncc(=O)[nH]1	.	1.4e-09	.	i	i
CC(=O)N(c1cccc(Br)c1)C1C=CS(=O)(=O)C1 (centres undefined)	-1.0%	1e-09	2%	i	i
C=CCn1c(C)cc(C(=O)COc2nncc3ccccc23)c1C	-0.9%	1.7e-08	16%[11.4 µM]	i	i
CCOc1ccccc1-n1c(SCC(N)=O)nnc1-c1ccc(O)cc1	-1.6%	3e-08	2%	i	i
CN(C(=O)CSc1nc2c(c(=O)[nH]1)CCCC2)C1CCCCC1	-2.1%	4.8e-08	12%	i	i
COc1ccc(CCn2c(=O)[nH]c3cc(C(=O)NCCCN4CCOCC4)ccc3c2=O)cc1OC	1.1%	5.2e-09	.	i	i
O=C(N=C1SCC(=O)N1c1ccccc1Cl)c1ccco1	2.5%	.	5%	.	.
O=P1(O)C=C(c2ccccc2)OC(c2ccccc2)=C1	-0.3%	2.8e-08	10%	i	i
Cc1csc(NC(=O)CSc2nnc(-c3ccccn3)n2-c2ccc(C)c(C)c2)n1	-0.5%	5.3e-08	7%	i	i
Cc1ccc2c(c1)c1c3n2CCN(C(=O)Cn2c(-c4ccccc4)noc2=O)C3CCC1 (centres undefined)	5.6%	1e-09	-8%	i	i
ON1C2CCCCC2N(O)C1c1c(F)c(F)c(F)c(F)c1F (centres undefined)	6.5%	1e-09	2%	i	i
CC(C)c1ccc(S(=O)(=O)N2CCN(C(=O)c3cccc(F)c3)CC2)cc1	-0.7%	1e-09	?	i	i
Cc1ccc(NC(=O)CCn2cccc2)cc1Cl	-0.2%	.	-10%	.	.
NC(=O)c1ccccc1N/C=C/C(=O)c1ccccc1	13%	1e-09	-1%	i	i
CCOC(=O)c1ccccc1NC(=O)c1cccs1	-1.0%	.	?	.	.

compound	AID923	A647 autofl	TSHR agonist	Resorufin autofl	A488 fluor
Cc1ccc(C(=O)COC(=O)c2ccc(Br)o2)cc1C	0.9%	.	?	.	.
COc1ccc(-c2noc(-c3ccco3)n2)cc1OC	-0.6%	9.9e-09	3%	i	i
CCc1ccc2nc(NC3=NCN(CCOC)CN3)nc(C)c2c1	0.2%	.	-3%	.	.
c1ccc2c(c1)CCCC2C1=NCCN1 (centres undefined)	2.2%&-1.4%	3e-08&1.3e-08	2%	i	i
COc1cccc(NC=C2C(=O)OC(C)(C)OC2=O)c1	-0.3%	.	4%[11.4 µM]	.	.
CCCn1c(C)nc2c(c1=O)c1nc3ccccc3nc1n2CCc1ccccc1	3.1%	1e-09	?	i	i
O=C1C2C3C=CC(C3)C2C(=O)N1CCN1CCN(S(=O)(=O)c2ccc3ccccc3c2)CC1 (centres undefined)	3.3%	.	-7%	.	.
CSc1[nH]c(=O)c(C(=O)O)cc1C#N	0.0%	4.9e-09	2%	i	i
NC(N)=NCc1cccc(I)c1	-0.3%	1e-09	1%	i	i
CCCN1C(=O)c2ccc(C(=O)Nc3cc(C)on3)cc2C1=O	-0.5%	4.3e-08	-4%	i	i
COc1cccc(OC)c1OCCNC[C@@H]1CSc2ccccc2O1	-0.1%	1.2e-08	?	i	i
COc1ccc(S(=O)(=O)NCc2ccc3c(c2)OCO3)cc1C(=O)O	-0.2%	.	-14%	.	.
CCc1ccccc1N=C1SCC(=O)N1C	0.7%	1e-09	.	i	i
COC(=O)c1cc2sc(Cl)cc2n1CC(=O)N1CCCc2ccccc21	-0.9%	1e-08	?	i	i
CC(C)c1ccc(NC(=O)c2cnn(-c3ccccc3)c2NC(=O)c2ccco2)cc1	0.7%	.	20%	.	.
CCCC12CN3CC(C)(CN(C1)C31CCCCC1)C2=O	-0.2%	1e-09	1%	i	i
O=C(Oc1ccccc1)c1cccc(N2C(=O)CCC2=O)c1	8.2%	.	0%	.	.
O=C(CSc1nnc(Cc2ccccc2)o1)NC1CC2CCC1C2 (centres undefined)	0.1%	1.5e-08	-3%	i	i
CN1CCN(c2ccc(Cl)cc2NC(=O)c2ccc(S(=O)(=O)N3CCCCCC3)cc2)CC1	-1.2%	1e-09	-17%	i	i
O=C(Cn1nnc(-c2ccccc2NC(=O)c2ccco2)n1)NC1CCCCC1	0.0%	1e-09	?	i	i
CCCCCCC=O	0.5%	.	?	.	.
c1ccc(OCCCc2nc(-c3ccncc3)no2)cc1	-0.3%	1.7e-08	4%	i	i
CCn1c(-c2cc(Br)ccc2O)n[nH]c1=S	-1.3%	.	-10%	.	.
O=C(CSc1ncn[nH]1)Nc1cccc2ccccc12	-1.6%	1e-09	1%	i	i
C=CCn1c(SCC(=O)Nc2ccccc2OC)nnc1-c1ccccn1	1.8%	1.7e-08	?	i	i

compound	AID923	A647 autofl	TSHR agonist	Resorufin autofl	A488 fluor
O=C(CCN1C(=O)c2ccccc2C1=O)Nc1ccc2c(c1)OCCO2	0.2%	1.1e-09	2%	i	i
CC(NC(=O)OCc1ccccc1)C(=O)N1CC(O)CC1C(=O)O (centres undefined)	0.1%	9.1e-09	6%[11.4 µM]	i	i
c1ccc(-n2nnc3cnccc32)cc1	-1.5%	1e-09	-3%	i	i
Cc1nc(NC2=NCN(CCCN3CCOCC3)CN2)nc2c(C)cccc12	1.0%	2.2e-08	-2%	i	i
c1ccc2c(c1)NC1(CCCC1)n1c-2nc2ccccc21	19%	2.7e-09	24%	i	i
CC(=O)COc1cc(C)cc2oc(=O)c(C)c(C)c12	2.0%	5.5e-08	15%	i	i
Cc1ccc(OCc2nc(C#N)c(NCCCn3ccnc3)o2)cc1	-1.1%	3.4e-08	1%[11.4 µM]	i	i
COc1ccc(C(=O)NCC23C=CC(O2)C2C(=O)N(Cc4ccccc4)C(=O)C23)cc1 (centres undefined)	-0.8%	.	-2%	.	.
COc1ccc2c(CSc3nc4nc(C)cc(C)n4n3)cc(=O)oc2c1	0.8%	1.1e-09	4%	i	i
O=C(NCCCN1CCOCC1)c1cc2c(s1)CSC2	3.3%	5.1e-09	0%	i	i
CC1CCCC(NC(=O)C2CCN(S(=O)(=O)N3CCOCC3)CC2)C1C (centres undefined)	-0.1%	1e-09	3%	i	i
CCn1c(SCC(=O)C(C)(C)C)nnc1-c1cnccn1	-0.8%	1e-09	.	i	i
COc1ccc(O[C@H]2C=C[C@@H](c3ccccc3)O[C@H]2COC(=O)N2CCCCC2)cc1	1.8%[11.5 µM]	.	11%[11.4 µM]	.	.
CCOC(=O)NC1(C(F)(F)F)NC(=O)N(Cc2ccco2)C1=O (centres undefined)	-1.0%	1.2e-08	0%	i	i
O=C(CN1C(=O)c2ccccc2C1=O)NC1(C(=O)O)CCCC1	2.0%[11.5 µM]	1e-09	2%[11.4 µM]	i	i
C=CCn1c(SCC(=O)NC2CCS(=O)(=O)C2)nc2scc(C3CC3)c2c1=O (centres undefined)	0.0%	3.7e-09	5%	i	i
CCc1nnc(NS(=O)(=O)c2ccc(NC(=O)OC)cc2)s1	2.5%	2.6e-08	.	i	i
O=C(CSc1nnc(CNC(=O)c2cccs2)o1)Nc1cccc(C(F)(F)F)c1	-0.7%	2e-08	?	i	i
COc1ccc(C)cc1NC(=O)c1cc2cc3ccc(C)cc3nc2o1	1.2%	8.1e-09	-3%	i	i
CC1(c2ccccc2Cl)NC(=O)N(CC(=O)NC(=O)NCc2ccco2)C1=O (centres undefined)	-1.6%	1e-09	0%	i	i
O=C1C=C(NCc2ccco2)CCC1	8.2%	1.2e-09	-4%	i	i
C(=N\c1nccs1)/c1c[nH]c2ccccc12	0.0%	.	-9%[11.4 µM]	.	.
COC(=O)C1=C(N)OC2=C(C(=O)CC(C)(C)C2)C1c1ccoc1 (centres undefined)	1.4%	4.9e-08	?	i	i
CCN1CCCC1CNC(=O)Cn1cnc2ccc(S(=O)(=O)N3CCC(C)CC3)cc2c1=O (centres undefined)	3.5%	2.4e-09	8%[11.4 µM]	i	i
COc1ccc(-n2c(C)c(C(C)=O)c3cc(O)ccc32)cc1	.	1e-09	.	i	i

compound	AID923	A647 autofl	TSHR agonist	Resorufin autofl	A488 fluor
c1csc(Cc2nc3ccccc3[nH]2)c1	-0.9%	9.4e-09	?	i	i
COc1cccc(N2CC(C(=O)Nc3c(C)cccc3C)CC2=O)c1 (centres undefined)	-2.7%	1.2e-09	14%	i	i
Cc1ccc(-c2nnn(CC(=O)N3CCN(c4nc5ccccc5s4)CC3)n2)cc1	-0.1%	5.6e-08	0%	i	i
COc1cc2nc(CN3CCN(c4ncc(C(F)(F)F)cc4Cl)CC3)[nH]c(=O)c2cc1OC	-0.7%	1.1e-09	4%	i	i
Cc1ccc(S(=O)(=O)NCc2ccccc2)cc1	-1.6%	.	25%	.	.
c1ccc(-c2ccccc2-n2cnnn2)cc1	-0.4%	.	3%	.	.
CCCc1cc(C(=O)Nc2sc(C(C)=O)c(C)c2C(=O)OCC)no1	-2.5%	.	-1%	.	.
CCc1cc2c(=O)c(-c3nc4ccccc4n3C)c(C(C)C)oc2c(CN2CCN(C)CC2)c1O	5.8%	.	-1%	.	.
COc1ccc(N2C(=O)C3C4C=CC(C4)C3C2=O)nn1 (centres undefined)	0.2%	1e-09	6%	i	i
Cc1nc2c(O)cccc2c(=O)[nH]1	2.0%	.	0%	.	.
CCc1cc2c(=O)c(-c3cscn3)coc2c(CN(C)C)c1O	.	1e-09	.	i	i
CCCCOC(=O)Nc1nnc(COc2ccccc2)s1	-3.4%	.	?	.	.
CN(C)c1ccc(/C(=N\O)c2ccccc2)cc1	2.8%	.	10%	.	.
Cc1ccc(-c2nn3c(C)nnc3s2)cc1NC(=O)c1cccnc1	1.7%	1.2e-08	1%	i	i
